PrP 5UTR inh: inhibition of PrP 5' UTR reporter expression; cell-based PrP 5' UTR mRNA reporter, plate reader; inhibition, % (test concentration not listed); hit rate 0.35% among 340,000; AID 488862, 2010;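 active = every replicate at 50% or more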;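 note: 0 = median of the neutral control wells; tested in H4 reporter cells; numbers are from one replicate; inactives centre near -14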
Mtb hypoxia inh: PubChem AID 1159583; M. tuberculosis hypoxia-regulated fluorescent reporter, fluorescence; fluorescence inhibition, % (test concentration not listed); hit rate 0.1% among 300,000;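 active = 35 to 45% if threefold the growth effect, above 45% if 1.5-fold the growth effect; inactive = the rest, general growth blockers included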;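 note: wells of about 50 µL received 100 nL stock; 0% = vehicle wells and 100% = reference inhibitor wells; whole bacteria with a GFP reporter of the hypoxia response; strong numbers were not always called active; many hits fall short of the cut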
ugtP null kill: growth inhibition of ugtP-null S. aureus, primary screen, RN4220 ugtP deletion, OD600 | AID 1259309, 2017 | growth inhibition, % (no concentration beside the values) | 16 h; some inactives read as strong as hits | hit rate 0.54% among 330,000;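 active = z-score under -3 and OD600 up to 0.15 on both plates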;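 note: plate controls were untreated wells for no effect and antibiotic for full effect; wells of about 80 µL received 100 nL stock; the first replicate is given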
Sa RN4220 lethal: growth inhibition of S. aureus RN4220, primary screen, OD600 | hit rate 0.33% among 330,000 | AID 1259311, 2017 | inhibition, % (concentration not given with the values) | 16 h;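 active = z-score of -3 or lower and OD600 up to 0.18 on both plates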;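 note: plate controls were untreated cells for no effect and reference antibiotic for full effect; stock transfer was 100 nL into about 80 µL; one replicate is shown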
BJeLR lethal: MLPCN primary cell-based screen for lethality selective to Ras in HRASV12 cells | BJeLR (HRASV12) viability, CellTiter-Glo ATP luminescence, 48 h; reference of the scale not given here | hit rate 0.17% among 300,000 | inhibition, % (test concentration not listed) | AID 1554, 2009;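 active = replicate mean above 50%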;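 note: 50 nL library stock added to about 25 µL; numbers are from one replicate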
Bead autofluor: compound fluorescence in toxin protease inhibitor counterscreen; compound autofluorescence counterscreen, microsphere flow cytometry; stronger effect = higher value; fluorescence intensity (concentration not given with the values); hit rate 3.1% among 360,000; AID 624483;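 active = at least 3 SD above the mean of all compounds, about 16000 in these data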;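 note: 100 nL of 1 mM stock went into each well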
Mtb hypoxia inh growth: second read-out of Mtb hypoxia inh, no call of its own (marks repeat the call); growth inhibition, %; measured here: M. tuberculosis growth (absorbance);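 0% = vehicle and 100% = reference antibiotic; read after six days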
* marks the source's active call; other numbers are inactive results; · = no result given.

SMILES	PrP 5UTR inh	Mtb hypoxia inh	Mtb hypoxia inh growth	ugtP null kill	Sa RN4220 lethal	BJeLR lethal	Bead autofluor
COc1ccc(NC(=O)CSc2nccc(C)n2)cc1	-1	·	·	1	0.4	8	4640
CC(=O)c1cccc(NC(=O)CN(Cc2ccccc2)S(C)(=O)=O)c1	1	12	-2	4	-1.2	-6	6859
Cc1cccc(-c2nnc(SCC3CNC(=O)O3)n2-c2ccc(Cl)cc2)c1 (configuration not stated)	-14	3	-3	15	0.8	-12	2501
COc1ccc(-c2ccc(OC(=O)NC3CCS(=O)(=O)C3)cc2)cc1 (configuration not stated)	-35	-1	8	4	7.0	-13	5453
COc1ccc(C(C(C(=O)c2ccco2)N2CCOCC2)N2CCOCC2)cc1 (configuration not stated)	-21	0	-2	-3	-8.4	5	2613
CC(=O)Nc1ccc(S(=O)(=O)NCCC(=O)OC(C)C(=O)c2ccc(C)cc2)cc1 (configuration not stated)	-9	11	10	2	4.8	-6	4625
COC(=O)c1sc(N)c(C(=O)OC)c1COC(=O)C1CC(=O)N(Cc2ccco2)C1 (configuration not stated)	-6	-9	2	-12	-1.9	-16	21636*
O=C(c1cccc(F)c1)N1CCN(S(=O)(=O)Cc2ccccc2)CC1	-8	15	-5	-1	2.8	5	4576
CC(C)CCN(C(=O)Cc1ccccc1F)c1c(N)n(Cc2ccccc2)c(=O)[nH]c1=O	-11	-2	5	12	-1.0	2	3296
Cc1cccc(S(=O)(=O)N2CCC(CO)(Cc3ccccc3)CC2)c1	-23	12	6	1	1.8	-4	3364
NC(=O)c1cc2n(n1)C(C(F)(F)F)CC(c1ccco1)N2 (configuration not stated)	-13	·	·	-4	1.3	23	3692
Cc1cc(C)n(-c2nnc(C)n2N)n1	-33	·	·	2	3.0	-2	5986
CCN(CC(=O)NCc1cccs1)C(=O)c1ccc(NS(=O)(=O)c2ccc(C(C)=O)cc2)cc1	-35	0	-2	4	2.2	-5	5462
COC(=O)c1nn(-c2ccccc2)c(Cl)c1C=NOCc1c(Cl)cccc1Cl	·	-5	-10	-5	-2.7	·	·
Cn1c(=O)n(CCc2ccccc2)c(=O)c2c1ncn2Cc1ccccc1	12	9	3	7	4.0	-9	15719
CCCCc1ccc(NC(=S)Nc2ccc(Cl)c(S(=O)(=O)N(C)C)c2)cc1	-5	17	7	14	13	8	1995
CN(CCc1ccccc1)C(=O)c1ccc(NC(=O)Cc2ccc(NC(=O)C3CCCN(C(=O)C4CC4)C3)cc2)cc1 (configuration not stated)	1	-2	5	0	1.2	·	3396
N[C@@H](Cc1ccc(O)cc1)C(=O)Nc1ccc2ccccc2c1	-39	15	6	6	-0.2	·	2992
CC1(CCc2ccccc2)NC(=S)N(c2ccccc2)N1 (configuration not stated)	-23	16	4	6	5.6	-10	2437
C=CCNC(=O)c1ccccc1NC(=O)c1cccc2ccccc12	-9	·	·	8	0.7	25	3520
Cc1cccc(C)c1N1C(=O)CC(N2CCN(S(=O)(=O)c3ccccc3F)CC2)C1=O (configuration not stated)	1	-2	3	6	10.0	·	3979
COc1cccc(C2CC(c3ccc(Cl)cc3Cl)n3nc(N)nc3N2)c1 (configuration not stated)	-8	·	·	5	-0.2	-2	5741
CCc1ccc(-c2ccc3nnc(SCC(N)=O)n3n2)cc1	-11	8	0	-2	1.9	-7	5881
O=c1[nH]c(/C=C/c2ccccc2)c([N+](=O)[O-])c(=O)[nH]1	-46	-4	6	-2	-0.3	1	4162
CCCCCCCNC(=O)C1(CC2CC(c3ccc(Cl)cc3)=NO2)CCN(C(=O)c2cc(OCC)c(OCC)c(OCC)c2)CC1 (configuration not stated)	-8	-4	5	-9	-12	-5	3801
Cc1nc(=S)n(-c2ccccc2)[nH]1	0	·	·	-7	1.2	3	4287
Cc1cccc(-c2noc(CN(C)C(=O)c3ccco3)n2)c1	-24	-5	-6	7	7.5	2	5449
Cn1nccc1C(=O)c1ccc(Cl)cc1	-22	·	·	6	3.5	-3	3555
O=C(COc1ccccc1[N+](=O)[O-])Nc1cccc(S(=O)(=O)N2CCCC2)c1	-22	11	9	-2	5.4	·	3706
COCCCNC(=O)CN1C(=O)c2cccc3cccc1c23	-9	7	-3	-1	1.6	-10	3132

Retrieved by compound from above:
SMILES	PrP 5UTR inh	Mtb hypoxia inh	Mtb hypoxia inh growth	ugtP null kill	Sa RN4220 lethal	BJeLR lethal	Bead autofluor
Cc1cc(C)n(-c2nnc(C)n2N)n1	-33	·	·	2	3.0	-2	5986
Cn1c(=O)n(CCc2ccccc2)c(=O)c2c1ncn2Cc1ccccc1	12	9	3	7	4.0	-9	15719
Cc1cccc(S(=O)(=O)N2CCC(CO)(Cc3ccccc3)CC2)c1	-23	12	6	1	1.8	-4	3364
N[C@@H](Cc1ccc(O)cc1)C(=O)Nc1ccc2ccccc2c1	-39	15	6	6	-0.2	·	2992
CC1(CCc2ccccc2)NC(=S)N(c2ccccc2)N1 (configuration not stated)	-23	16	4	6	5.6	-10	2437
O=c1[nH]c(/C=C/c2ccccc2)c([N+](=O)[O-])c(=O)[nH]1	-46	-4	6	-2	-0.3	1	4162
Cc1nc(=S)n(-c2ccccc2)[nH]1	0	·	·	-7	1.2	3	4287

Next part:
SMILES	PrP 5UTR inh	Mtb hypoxia inh	Mtb hypoxia inh growth	ugtP null kill	Sa RN4220 lethal	BJeLR lethal	Bead autofluor
O=C(Cc1ccccc1)NN1C(=O)C2C3C=CC(C3)[C@@H]2C1=O (some centres not stated)	-24	13	7	8	4.3	-5	2569
COc1cc(SC)ccc1C(=O)Nc1ccc2c(c1)CCC2	-99	4	2	26	-1.5	4	3039
COc1ccc(-c2cc(C)no2)cc1S(=O)(=O)N1CCN(c2ccccc2F)CC1	-8	11	4	-4	0.6	5	4289
CCOc1ccc(NC(=O)CN2CCN(CC(=O)Nc3cccc(F)c3)CC2)cc1	-11	·	·	2	-1.0	·	2791
OCCC1CN(Cc2cccc3nonc23)CCN1C1CCCCC1 (configuration not stated)	-29	-2	6	2	-0.4	12	3247
Cc1cc(NC(=O)COC(=O)COc2ccc(Cl)cc2C)c([N+](=O)[O-])cc1C	-14	·	·	·	·	-4	2444
O=C(c1noc2c1CCCC2)N1CCN(c2ccccc2)CC1	-20	10	13	3	2.5	-11	10025
CCOc1cc(C(=O)OC(C)C(=O)Nc2ccccc2OC)ccc1OCC(=O)N1CCOCC1 (configuration not stated)	·	-6	11	2	1.6	·	5446
CC(C)Cc1ccc(S(=O)(=O)N2CCOCC2)cc1	-8	5	6	-6	2.7	-2	13155
O=C(O)C1(Nc2ccc(Cl)cc2)CCCC1	-5	19	8	3	5.1	·	3982
CC(C)(C)S(=O)(=O)/C(C#N)=N/Nc1ccc(S(N)(=O)=O)cc1	-21	·	·	·	·	-8	2593
Cc1ccc(OCc2nnc(SCC(=O)N3C(C)CCCC3C)o2)cc1 (configuration not stated)	-8	6	16	0	2.2	2	3744
CC(C)[C@@H](C(=O)NC1CC1)N1C(=O)N2CCc3c([nH]c4ccccc34)[C@@]2(C)C1=O	-5	·	·	-6	0.5	-1	5505
COc1ccc(CN2C(=O)c3cccc4cccc(c34)C2=O)cc1	-5	-8	2	9	2.5	3	4283
COc1ccc(-n2cnc3cc(C(=O)NCC4CCCO4)ccc32)cc1 (configuration not stated)	3	2	-2	1	-2.6	6	5231
O=C(COc1ccccc1)N1CCN(c2ncnc3c2cnn3-c2ccccc2)CC1	-21	12	6	-1	-7.7	1	2761
COCCn1c(SCCN2CCOCC2)nc2c1c(=O)[nH]c(=O)n2C	-16	3	4	2	3.4	17	6077
C=CCn1c(SCC(C)=O)nc2sc3c(c2c1=O)CCC3	-13	1	1	3	3.6	-7	3760
O=C(OCn1ncc(Cl)c(Cl)c1=O)c1cccc(C(F)(F)F)c1	17	-4	3	20	-1.9	2	22357*
OC(CSc1c(Cl)cccc1Cl)CN1CCN(c2ccccc2F)CC1 (configuration not stated)	-12	15	6	19	9.0	18	20273*
Nc1nc2c(ncn2C2C[C@H](O)[C@@H](CO)O2)c(=O)[nH]1 (some centres not stated)	52	·	·	·	·	-8	5480
COc1cccc(C(C)N(C)Cc2nc(COc3ccccc3)no2)c1 (configuration not stated)	-33	3	4	10	0.7	1	3614
O=C(c1cc2ccccc2o1)N1CCN(C/C=C/c2ccccc2)CC1	-8	8	5	13	2.3	10	4875
C[C@H](C(=O)O)c1n[nH]c(=O)c2ccccc12	-10	4	7	7	6.2	-1	7379
COc1ccccc1C(=O)NCC(=O)N1CCN(c2ncccn2)CC1	-14	13	14	5	0.7	·	7966
c1ccc2c(Cn3ccnc3)c[nH]c2c1	-60	4	-11	0	1.0	6	10223
COCCn1c(SCC(=O)Nc2cccc(S(N)(=O)=O)c2)nc2cc(Cl)ccc2c1=O	-15	5	1	2	0.7	-3	4672
COc1cc(C(=O)N2CCN(c3ccccc3F)CC2)ccc1OCC(=O)N1CCOCC1	·	-14	6	0	3.4	·	6540
CCCn1c(SCC(=O)Nc2nnc(C)s2)nnc1C1CC1	-17	6	7	10	-0.7	2	5531
Cc1nn(-c2ccccc2)c(C)c1C(=O)OC(C)C(=O)NC1CCCCC1C (configuration not stated)	2	3	6	3	6.6	·	8507

In another format: 3 of the compounds above
O=C(OCn1ncc(Cl)c(Cl)c1=O)c1cccc(C(F)(F)F)c1
  PrP 5UTR inh: 17
  Mtb hypoxia inh: -4
  Mtb hypoxia inh growth: 3
  ugtP null kill: 20
  Sa RN4220 lethal: -1.9
  BJeLR lethal: 2
  Bead autofluor: 22357*

OC(CSc1c(Cl)cccc1Cl)CN1CCN(c2ccccc2F)CC1 (configuration not stated)
  PrP 5UTR inh: -12
  Mtb hypoxia inh: 15
  Mtb hypoxia inh growth: 6
  ugtP null kill: 19
  Sa RN4220 lethal: 9.0
  BJeLR lethal: 18
  Bead autofluor: 20273*

Nc1nc2c(ncn2C2C[C@H](O)[C@@H](CO)O2)c(=O)[nH]1 (some centres not stated)
  PrP 5UTR inh: 52
  Mtb hypoxia inh: ·
  Mtb hypoxia inh growth: ·
  ugtP null kill: ·
  Sa RN4220 lethal: ·
  BJeLR lethal: -8
  Bead autofluor: 5480

The listing continues:
SMILES	PrP 5UTR inh	Mtb hypoxia inh	Mtb hypoxia inh growth	ugtP null kill	Sa RN4220 lethal	BJeLR lethal	Bead autofluor
Cc1ccc(S(=O)(=O)N2CCN(CC(=O)N/N=C/c3ccc(Br)s3)CC2)cc1	-14	·	·	·	·	-9	2483
COc1ccc([C@@H]2[C@@H]3C(=O)N(C(C)(C)C)C(=O)[C@@H]3[C@]3(Cc4ccc(Cl)cc4)C(=O)N(c4cccc(C)c4)C(=O)N23)cc1	-12	·	·	·	·	-8	2854
CCCNC(=O)C1CCC(CNS(=O)(=O)c2cccc3nsnc23)CC1 (configuration not stated)	-1	-2	-6	8	4.7	-3	4471
COc1ccc(C(CNC(=O)c2ccc(S(=O)(=O)Nc3ccccc3C)cc2)N2CCOCC2)cc1 (configuration not stated)	-3	-1	3	-7	0.6	5	5799
COc1ccc(/C=C/c2cc(C(=O)O)c3ccccc3n2)cc1	71*	13	9	13	7.4	27	4296
CN(Cc1c(C(=O)NN=Cc2cccc(F)c2)nnn1-c1nonc1N)C1CCCCC1	·	-3	6	-1	-1.4	·	·
O=C(CON=Cc1ccc(Cl)cc1Cl)NNC(=O)c1cccc(Cl)c1	·	5	4	-2	0.5	·	·
O=C(Nc1ccc(F)cc1)N1CCN(C(=O)C2CCCO2)CC1 (configuration not stated)	3	6	-1	-2	0.4	6	6530
CCC(=O)N1CCN(c2ccc(NC(=O)c3c(F)c(F)c(OC)c(F)c3F)cc2)CC1	-22	6	4	-2	4.1	7	10732
Cc1cc(NC(=O)CSCC(=O)N(C)Cc2ccc(Cl)c(Cl)c2)no1	-25	5	-10	5	2.7	1	5307
CN(c1ccccc1)S(=O)(=O)c1ccc(C(=O)Nc2nnc(C3CC3)s2)cc1	-15	0	4	5	2.6	-3	6154
Cc1ccc(-n2cc(CNCCn3nc(C)cc3C)c(-c3ccc(F)cc3)n2)cc1	-7	2	8	-4	5.7	-11	4800
COC(=O)C1=C(C)NC(C)=C(C(=O)OC)C1c1ccc(C)o1	-68	12	9	2	4.6	-6	3986
